Compound activity as filed in PubChem.
Vif A3G – inhibitors of Vif binding to APOBEC3G peptide, primary screen, biochemical, TR-FRET, GST-Vif 1-94, biotin-A3G peptide, dose response retest (AID 1117319); TR-FRET GST-Vif / biotin-A3G peptide binding; higher % means a stronger effect; test concentration not given here; strong numbers were not always called active; 260,000 compounds, 0.57% hits; inhibition, %; hits with a dose series show IC50 in µM;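 active = above the screen mean plus three standard deviations and confirmed in dose response; inconclusive = results disagree or hit not tested in dose response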;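 also: Vif residues 1-94 fused to GST binding biotinylated APOBEC3G peptide 110-148; 0% = full assay without inhibitor and 100% = GST in place of GST-Vif; retest series ran down from 100 µM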
B2AR ag – agonists of human beta-2 adrenergic receptor inducing internalization | P07550 | Am2.2-beta2AR cells, FAP receptor internalization, flow cytometry; reference of the scale not given here | response, % (test concentration not listed) | 340,000 compounds, 0.43% hits | AID 504454;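 active = response above a set limit, near 3 SD of response in nonfluorescent compounds, cut at about 42% in these data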;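 also: stock transfer was 100 nL into about 11 µL; a reference agonist was the positive control; negative values mostly stem from fluorescent compounds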
Target sequence (P07550 whole entry, looked up): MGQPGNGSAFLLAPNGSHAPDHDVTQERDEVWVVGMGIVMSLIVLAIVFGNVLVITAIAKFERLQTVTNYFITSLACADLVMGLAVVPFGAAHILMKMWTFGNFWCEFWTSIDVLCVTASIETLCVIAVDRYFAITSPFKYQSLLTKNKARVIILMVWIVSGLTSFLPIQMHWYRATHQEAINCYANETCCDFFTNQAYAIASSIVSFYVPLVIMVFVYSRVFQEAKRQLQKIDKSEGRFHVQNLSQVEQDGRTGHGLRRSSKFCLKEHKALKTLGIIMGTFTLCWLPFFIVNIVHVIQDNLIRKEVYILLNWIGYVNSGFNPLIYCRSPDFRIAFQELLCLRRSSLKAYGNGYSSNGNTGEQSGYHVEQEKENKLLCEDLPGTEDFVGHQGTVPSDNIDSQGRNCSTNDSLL
LANA-H2B inh – blocks KSHV LANA binding to histone H2A/H2B. Q9QR71. cell-free LANA-H2A/H2B peptide, fluorescence polarization. inhibition, % (test concentration not listed). 320,000 compounds, 0.6% hits. AID 2629; in the data active = inhibition mostly above about 10%, no sharp cut-off; inactive = mostly below about 6.7%;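 also: stock transfer was 7.5 nL into about 10 µL; 0% = median of vehicle wells and 100% = median of positive control wells; one replicate is shown; the record names a cut of 25% in any replicate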
UCH37 inh – human UCH37 deubiquitinating enzyme inhibition. Q9Y5K5. purified proteasome/UCH37, Ub-AMC cleavage fluorescence. inhibition, % (concentration not given with the values). 330,000 compounds, 0.33% hits;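 active = mean of two replicates above 20%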;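 also: 0% = compound-free wells with enzyme and 100% = wells lacking proteasome; stock transfer was 100 nL into about 20 µL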
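Material: human UCH37 enzyme supplied as purified proteasome complex. Measure: % inhibition of Ub-AMC cleavage fluorescence. Medium: pH 7.4 Tris-HCl (50 mM) with ovalbumin, ATP-MgCl2, DTT. Times: 30 min preincubation with enzyme, 25 min cleavage at room temperature. Detection: AMC fluorescence intensity at 355/460 nm.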
Ecoli growth – E. coli growth inhibition | AID 1053175 | Escherichia coli growth, OD600, 23 h; hits give low values | 330,000 compounds, 0.21% hits | OD600 absorbance (no concentration beside the values);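 active = OD600 absorbance below the run mean of sample wells minus 3.6 SD, in any replicate, cut at about 0.56 in these data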;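 also: stock transfer was 300 nL into about 60 µL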
A1 inh – inhibitors of the anti-apoptotic protein A1, read as caspase activation. MEF A1-2A-BIM cells, Caspase-Glo 3/7 luminescence, 3 h; percent of clofoctol response, vehicle zero. caspase activation, % (no concentration beside the values). 330,000 compounds, 0.066% hits. AID 2462;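 active = over half of replicate activation scores above 10%, or exactly half above 10 with the replicate mean above 10; inconclusive = replicate mean below 10 yet half the replicates above 10; inactive = over half of replicates below 10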;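 also: wells of about 30 µL received 50 nL stock; many hits fall short of the cut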
HNF4A DNA FP – change in binding of human HNF4 alpha to DNA. P41235. HNF4a-FITC DNA binding, fluorescence polarization, 1 h. activity change, % at 10 µM. 360,000 compounds, 0.3% hits. AID 1224865; in the data active = activity change above about 30%, passing the limit was not always enough;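 also: controls were the assay level and a saturating level of protein; the project sought stronger binding though the title names inhibitors; some compounds called inactive have numbers as strong as hits; positive values seem to mean higher polarization but the record does not say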
Target sequence (P41235 whole entry, looked up): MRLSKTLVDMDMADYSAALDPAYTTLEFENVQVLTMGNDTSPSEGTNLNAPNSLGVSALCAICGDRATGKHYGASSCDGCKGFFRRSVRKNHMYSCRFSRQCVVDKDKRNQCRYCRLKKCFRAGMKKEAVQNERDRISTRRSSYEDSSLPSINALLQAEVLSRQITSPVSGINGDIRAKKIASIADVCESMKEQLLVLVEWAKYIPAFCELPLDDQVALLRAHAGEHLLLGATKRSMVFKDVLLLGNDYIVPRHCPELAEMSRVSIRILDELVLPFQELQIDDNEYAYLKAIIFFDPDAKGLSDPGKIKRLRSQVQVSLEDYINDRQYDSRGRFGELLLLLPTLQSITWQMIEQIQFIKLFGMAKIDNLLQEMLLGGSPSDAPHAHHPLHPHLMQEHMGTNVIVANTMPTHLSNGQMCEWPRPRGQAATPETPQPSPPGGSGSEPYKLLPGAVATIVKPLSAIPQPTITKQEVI
* marks the source's active call; other numbers are inactive results; i = inactive; ? = inconclusive; nt = no result given. No enrichment for hits; about 2.1% have a hit in one of these screens.

| molecule | Vif A3G | B2AR ag | LANA-H2B inh | UCH37 inh | Ecoli growth | A1 inh | HNF4A DNA FP |
| --- | --- | --- | --- | --- | --- | --- | --- |
| CCOc1ccc(C(=O)Nc2ccc(S(=O)(=O)N3CCOCC3)cc2)cc1OCC | 24% | 14 | -0.4 | -3.0 | 0.67 | 0.6 | -1.6 |
| CCCCCC(=O)Nc1ccc(Cc2ccncc2)cc1 | -3% | -9 | 2.0 | -1.9 | 0.67 | 0.6 | -1.4 |
| Cc1ccc(Oc2cc(C)nc(-c3ccccc3O)n2)cc1 | 3% | -2 | 5.3 | -6.6 | 0.75 | -0.3 | 0.2 |
| O=C(N/N=C/c1ccccc1[N+](=O)[O-])c1cnccn1 | 0% | -1 | 7.0 | nt | nt | 0.1 | 2.0 |
| CCOC(=O)CSc1c(-c2ccccc2)c2cc(Cl)ccc2[nH]c1=O | nt | 18 | 1.5 | 1.8 | 0.68 | 1.8 | 1.5 |
| CCOC(=O)c1c(-c2ccccc2)oc2ccc(O)cc12 | nt | -4 | -4.8 | -234 | 0.68 | 1.1 | 0.7 |
| COc1ccc(NC(=O)CN(C)S(=O)(=O)c2ccc3c(c2)n(C)c(=O)c(=O)n3C)cc1 | nt | 0 | 0.9 | 0.2 | 0.66 | 0.0 | -0.3 |
| COc1ccc(C(CNC(=O)COc2ccc(F)cc2Cl)N2CCCCC2)cc1 (stereo not given) | nt | -8 | 3.1 | 1.9 | 0.71 | -0.3 | 2.5 |
| COc1ccc(CCNC(=O)C2CCCN(S(=O)(=O)c3ccccc3)C2)cc1 (stereo not given) | 3% | -3 | 1.1 | 1.4 | 0.7 | 0.5 | 2.2 |
| CCNc1nc(Nc2ccc(C)c(Cl)c2)c2cnn(C)c2n1 | -5% | 8 | -1.5 | -5.4 | 0.7 | 0.9 | -4.8 |
| COc1ccc(C)cc1NC(=O)CSc1nnc(COc2ccccc2)n1Cc1ccco1 | 0% | 1 | 0.9 | 2.1 | 0.72 | 0.0 | 3.5 |
| CN1C(=O)NC2C1N(S(C)(=O)=O)CCN2S(C)(=O)=O (stereo not given) | -5% | 2 | 0.1 | 1.2 | 0.67 | 0.3 | -0.8 |
| COc1ccc(-n2ccnc(SCC(=O)NCc3ccc(C)cc3)c2=O)cc1Cl | -7% | -4 | -0.8 | -26 | 0.7 | -0.4 | 2.8 |
| CN(C(=O)CCn1c(=S)oc2ccccc21)c1ccc(F)cc1 | nt | -25 | 5.3 | 0.8 | 0.68 | 1.5 | -2.9 |
| Cc1cc(Cl)ccc1C(=O)C1CCCN(C(=O)c2snnc2C)C1 (stereo not given) | -10% | -2 | -6.7 | 1.9 | 0.71 | -0.5 | -2.5 |
| CCOC(=O)c1c(C)c(C(=O)N2CCCCCC2)c(C)n1CC | -7% | 5 | -1.8 | 0.6 | 0.73 | 0.3 | 1.4 |
| Cc1c([N+](=O)[O-])c(C(=O)Nc2ccc3c(c2)OCCO3)nn1C | -2% | -1 | -0.1 | 4.0 | 0.72 | 0.0 | -0.5 |
| COc1ccc(O)c(-c2[nH]ncc2C(=O)c2ccccc2C)c1 | ? | 3 | 1.8 | 4.8 | 0.71 | ? | 3.6 |
| CC(C)CCN(C(=O)c1ccc(Br)cc1)c1c(N)n(Cc2ccccc2)c(=O)[nH]c1=O | -12% | -11 | 0.3 | 0.0 | 0.65 | 0.1 | 3.4 |
| Cc1ccc(S(=O)(=O)NC(CC(C)C)C(=O)NCC(c2ccco2)N2CCCCC2)cc1 (stereo not given) | 20% | -4 | i | 4.0 | 0.68 | 0.2 | 4.9 |
| CN(C)C(=O)COc1ncnc2sc(-c3ccccc3)cc12 | 9% | -9 | -1.2 | 0.6 | 0.69 | -0.6 | 2.3 |
| CCc1ccc(C(=O)OCC(=O)NC2CCCC2)cc1 | 1% | -7 | -6.7 | 6.3 | 0.68 | -0.7 | 0.7 |
| O=C1CC(=O)Nc2cc(S(=O)(=O)Nc3ccc(F)cc3Cl)ccc2N1 | -2% | 6 | -3.8 | 5.2 | 0.72 | -0.5 | 6.1 |
| O=C(c1cc(-c2cccnc2)nc2ccccc12)N1CCCc2ccccc21 | nt | -5 | -0.1 | 1.8 | 0.7 | 1.5 | -1.4 |
| C/C(=N\NC(=S)NCC(C)(C)C)c1cc(F)cc(F)c1O | -5% | 10 | 0.0 | nt | nt | 1.3 | -1.9 |
| O=C(C1CCC1)N1CCc2cc(S(=O)(=O)Nc3ccc4c(c3)OCO4)ccc21 | 4% | -16 | 0.2 | -1.9 | 0.74 | -0.2 | 0.9 |
| CCOC(=O)c1ccccc1NC(=O)N[C@@H](C)C(=O)OC | 3% | 0 | 1.6 | -1.6 | 0.71 | 0.3 | 2.9 |
| CCn1ncc(NC(=S)Nc2ccc3c(c2)OCO3)c1C(N)=O | 19% | -1 | 1.9 | 3.5 | 0.67 | -0.1 | 3.3 |
| O=C(Oc1ccc2ccc(=O)oc2c1)c1ccccc1 | -7% | 4 | -0.2 | -425 | 0.67 | -0.1 | -3.8 |
| COc1cccc(N2CCN(C(=O)c3cc(C)oc3C)CC2)c1 | nt | -5 | 1.7 | 2.9 | 0.7 | 1.5 | 2.5 |
| COc1cccc(CN2CC(C(=O)NCCCn3ccnc3C)CCC2=O)c1 (stereo not given) | nt | -2 | -2.8 | 5.3 | 0.73 | 0.2 | 3.3 |
| Cc1cccc(C)c1NC(=O)CN1C(=O)N(C)Cc2ccccc21 | -7% | -1 | 0.5 | 2.0 | 0.68 | 0.2 | 2.9 |
| CC(C)c1ccc(OCC(=O)N2CCN(C(=O)c3ccco3)CC2)cc1 | nt | -8 | 3.3 | -0.4 | 0.71 | 0.3 | 5.1 |
| CN(CC(=O)OCC(N)=O)S(=O)(=O)c1ccc(Cl)cc1 | 2% | -2 | -7.9 | 0.3 | 0.69 | 0.9 | 1.3 |
| CCC(CO)Oc1cc(NC(=O)c2cccc(Cl)c2)c2ncn(C(C)C)c2c1 (stereo not given) | nt | -7 | -3.2 | 2.3 | 0.67 | -1.3 | -4.3 |
| Nc1ccc(C(=O)N2N=C(c3ccc(F)cc3)CC2(O)C(F)(F)F)cc1 (stereo not given) | -2% | -6 | 0.5 | -15 | 0.68 | 0.6 | -0.1 |
| O=C(CCCc1ccccn1)c1cccc2ccccc12 | 7% | -11 | nt | -1.9 | 0.63 | nt | -1.2 |
| COc1ccc(Cl)cc1NC(=O)c1nnn(CC(=O)Nc2cc(C)cc(C)c2)c1N | nt | 8 | -3.5 | 5.9 | 0.69 | 2.0 | 0.0 |
| O=C1S/C(=C/c2ccccc2)C(=O)N1CC(O)Cn1c2ccccc2c2ccccc21 (stereo not given) | -4% | 10 | 1.1 | 3.8 | 0.71 | -0.4 | -1.3 |
| COC(=O)CSc1nc2ccc(N)cc2s1 | 0% | 2 | -7.0 | 4.9 | 0.73 | -0.6 | 1.6 |
| Cc1cccc(NC(=S)N(CCCN2CCOCC2)Cc2cn(C)c3ccccc23)c1 | ? | 17 | -3.0 | 0.2 | 0.62 | -0.9 | 0.4 |
| CC1(C)CC(=O)C2=C(C1)Nc1ccccc1NC2 | -8% | 6 | 0.1 | 12 | 0.62 | 1.1 | 1.5 |
| Cc1c(N=Cc2c(O)n(C3CCCCC3)c(=O)[nH]c2=O)c(=O)n(-c2ccccc2)n1C | 3% | 8 | 5.1 | 2.2 | 0.66 | 0.6 | 11 |
| COc1cccc(C(C(=O)NC2CCCCC2)N(CCN2CCOCC2)C(=O)C2COc3ccccc3O2)c1 (stereo not given) | 19% | 6 | -1.0 | -1.2 | 0.7 | 1.1 | -2.2 |
| COCCN(C(=S)Nc1cc(C)cc(C)c1)C(C)c1ccco1 (stereo not given) | 0% | 4 | 0.3 | 4.8 | 0.65 | -0.5 | -0.1 |
| O=C(NCCN1CCOCC1)NC1(C(F)(F)F)Oc2ccc(Cl)cc2O1 (stereo not given) | 6% | -5 | 1.4 | 0.7 | 0.67 | 0.9 | -0.9 |
| CCOc1ccc2[nH]c(S(=O)(=O)CC)nc2c1Cl | -2% | 3 | -4.9 | 3.9 | 0.71 | 0.6 | 0.3 |
| O=C(Oc1ccccc1N1C(=O)C2CC=CCC2C1=O)c1ccc(Br)cc1 (stereo not given) | nt | -1 | 1.8 | 1.6 | 0.69 | 0.2 | 16 |
| COC(=O)C1=CN(Cc2ccc(OC)cc2)C=C(C(=O)OC)C1c1cccs1 | nt | -4 | -2.0 | -217 | 0.75 | 0.4 | 2.7 |
| Cn1c(-c2ccsc2)c(-c2cccs2)c2cc(-c3cccc4[nH]ccc34)ccc21 | nt | -3 | 1.3 | -4.4 | 0.69 | -0.4 | 3.7 |
| Cc1c(C(=O)N2CCCCC2)c(S(=O)(=O)N2CCN(c3ccccc3F)CC2)c(C)n1C | -3% | 1 | -0.5 | 0.4 | 0.71 | -0.9 | 5.7 |
| Cc1nnc(SCC(=O)NNC(=O)c2ccccc2)n1-c1ccccc1 | nt | -5 | -1.9 | 2.9 | 0.69 | 0.3 | -1.6 |
| O=C(CN1CCN(c2ccc(O)cc2)CC1)NC(c1ccccc1)c1ccccc1 | ? | -6 | 2.9 | -0.4 | 0.7 | 0.0 | -5.6 |
| COc1ccc(OCc2nnc(SCC(=O)Nc3ccccc3Cl)o2)cc1 | nt | -9 | 2.4 | 4.1 | 0.69 | 1.4 | -0.7 |
| COc1ccc([N+](=O)[O-])cc1NCC(=O)Nc1cccc(S(=O)(=O)N2CCCC2)c1 | 0% | 5 | nt | 5.3 | 0.68 | nt | -1.1 |
| CCc1nnc(NC(=O)CSc2nnc(-c3ccc(S(=O)(=O)N4CCCC4)cc3)n2CC)s1 | 3% | -7 | 2.6 | 0.0 | 0.72 | 0.7 | 0.6 |
| CCOCCCNC(=O)C(NC(=O)c1ccccc1O)c1ccccc1 (stereo not given) | 1% | 3 | 0.3 | -17 | 0.74 | 0.7 | 0.6 |
| CCOc1ccc2c(c1)C(C)=CC(C)(C)N2C(=O)Nc1ccccc1F | nt | -2 | 1.5 | -112 | 0.66 | -1.1 | -3.0 |
| O=C(CSc1ccc(-c2ccco2)nn1)NCc1ccccc1Cl | nt | -7 | -2.0 | -4.2 | 0.65 | -0.1 | 1.2 |
| O=C(Nc1ccccc1Cl)N1CCN(c2ccc3nncn3n2)CC1 | 6% | -2 | -0.7 | 4.0 | 0.71 | 0.5 | 2.4 |

The list goes on.
| molecule | Vif A3G | B2AR ag | LANA-H2B inh | UCH37 inh | Ecoli growth | A1 inh | HNF4A DNA FP |
| --- | --- | --- | --- | --- | --- | --- | --- |
| O=C(COC(=O)c1cccc(S(=O)(=O)N2CCCCCC2)c1)NCc1ccc(Cl)cc1 | 6% | -1 | nt | 0.7 | 0.66 | nt | -2.8 |
| Cc1nc(C)n(CCNS(=O)(=O)c2ccccc2)n1 | nt | -3 | 0.0 | 1.9 | 0.66 | 1.4 | -0.2 |
| Cc1ccc(-c2ccc(CCC(=O)O)n2NC(=O)c2cccs2)cc1 | 4% | 2 | 3.6 | -0.1 | 0.71 | -0.2 | -1.5 |
| Cc1cc(C)n2nc(C(=O)OCC(=O)c3cc(C)n(C)c3C)nc2n1 | ? | -1 | -3.5 | 0.6 | 0.73 | -0.3 | -8.0 |
| COc1ccc(/C=C\c2onc(C)c2S(=O)(=O)N2CCC(C(=O)NCc3ccco3)CC2)cc1 | nt | 2 | 2.4 | -29 | 0.69 | 0.4 | -6.3 |
| CCOC(=O)/C(=N\Nc1cc(Cl)ccc1Cl)N1CCN(CC)CC1 | 9% | 2 | -1.2 | nt | nt | -0.1 | -1.6 |
